Screening results deposited in PubChem BioAssay by Johns Hopkins Ion Channel Center.
Kir21 inh = inhibitors of mouse Kir2.1 inward-rectifier potassium channel | Inward rectifier potassium channel 2 (Mus musculus), P35561 | HEK293-Kir2.1, FluxOR thallium flux fluorescence; hits give low values | B-score at 10 µM | actives 0.85% (n = 310,000) | AID 1672, 2009;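 active means fluorescence ratio B-score at or below minus 3 SD of library scores, with starting-brightness B-score within 2 SD, cut at about -4.2 in these data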;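 further: channel flux triggered by added potassium and thallium sulfate stimulus; B-score of peak minus minimum fluorescence over baseline after thallium stimulus; more negative B-score means stronger Kir2.1 block with less thallium influx; some compounds called inactive have numbers as strong as hits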
Target sequence (P35561 whole entry, looked up): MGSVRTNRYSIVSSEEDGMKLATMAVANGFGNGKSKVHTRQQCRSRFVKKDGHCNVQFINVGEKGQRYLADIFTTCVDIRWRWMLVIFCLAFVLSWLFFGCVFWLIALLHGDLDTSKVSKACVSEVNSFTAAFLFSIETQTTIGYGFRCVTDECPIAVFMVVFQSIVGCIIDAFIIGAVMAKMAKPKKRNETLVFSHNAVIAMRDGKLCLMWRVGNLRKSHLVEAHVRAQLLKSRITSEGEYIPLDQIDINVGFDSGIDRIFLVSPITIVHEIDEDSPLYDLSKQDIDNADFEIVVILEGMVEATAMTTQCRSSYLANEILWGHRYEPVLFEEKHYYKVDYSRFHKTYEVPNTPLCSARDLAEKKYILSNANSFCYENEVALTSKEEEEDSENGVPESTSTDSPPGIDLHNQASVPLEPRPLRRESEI
* = called active by the depositor. Some of the compounds tested, and most or all hits are left out here.

Kir21 inh | mol
1.9 | CCOC(=O)C(C)/C(C)=N/NC(=O)c1cc2ccccc2cc1O (centres undefined)
0.02 | O=C(C[C@H]1C(=O)N(c2ccc(F)c(F)c2)C[C@@H]1Cc1ccccc1)Nc1ccccc1
0.07 | CCc1cc[n+](/C(C(=S)Nc2cccc(C)c2)=C(/[O-])c2ccc(C)c([N+](=O)[O-])c2)cc1
2.4 | CC(=O)C1=C(O)C(=O)N(c2ccc(O)cc2)C1c1ccc(C)cc1 (centres undefined)
-0.03 | CC(C)CCN1CCC(n2nccc2NC(=O)c2ccc3c(c2)OCO3)CC1
-0.61 | O=C(N/N=C/C(Br)=C\c1ccccc1)c1ccc2nc[nH]c2c1
-0.19 | Cc1cc(C)c(NC(=S)N(Cc2cccnc2)Cc2ccco2)c(C)c1
1.1 | C=CCSc1ncccc1C(=O)O
-0.06 | Cc1csc(NC(=O)CSc2ccc(-c3ccc(F)cc3)nn2)n1
-0.18 | C=CCN(C(=O)c1csnn1)C(C(=O)NC1CCCC1)c1c(F)cccc1Cl (centres undefined)
0.29 | Cc1ccsc1C(=O)NNC(=S)NCC(C)C
-0.16 | CCCC(=O)N(Cc1cc(=O)[nH]c2ccccc12)c1cccc(C)c1
0.51 | COC(=O)C1C(=O)C=C(N2CCOCC2)CC1(C)C (centres undefined)
0.16 | COc1cc(/C=C(\C#N)C(=O)Nc2cc(C(F)(F)F)ccc2Cl)ccc1OCC(=O)Nc1cccc(C(F)(F)F)c1
-1.3 | CC(C)CCN1CCN(Cc2ccc(Oc3ncccn3)cc2)CC1CCO (centres undefined)
-0.39 | Cc1ccc(NNC(=O)c2snnc2C)cc1Cl
-0.38 | O=C(/C=C/c1ccc2ccccc2n1)c1cc(Cl)ccc1O
-1.1 | Cc1ccc2nc(C3CCCN(C(=S)Nc4cccc(C)c4C)C3)[nH]c2c1 (centres undefined)
2.7 | Nc1cccc(CCc2nc3ccccc3[nH]2)c1
-0.11 | COc1ccc(CCNC(=O)c2ccc3c(c2)N(Cc2ccc(F)cc2)CCS3)cc1OC
-0.87 | Cc1ccc(/C=N/Nc2ccc3c(C(F)(F)F)cc(C(F)(F)F)nc3n2)cc1
-0.01 | CCS(=O)(=O)N1CCN=C1SCc1cccc(F)c1
-1.6 | CC(Sc1ncnc2sc(-c3ccccc3)cc12)C(N)=O (centres undefined)
-0.25 | Cc1ccc(NS(=O)(=O)c2ccc(NC(=O)N3CCCCC3)cc2)cc1
2.8 | CCOC(=O)C(Cc1ccc(NC(=O)/C(=C/c2ccc(OC(C)=O)cc2)NC(C)=O)cc1)N1C(=O)c2ccccc2C1=O (centres undefined)
-0.54 | O=C(COC(=O)c1cccc(S(=O)(=O)N2CCN(c3ccccc3)CC2)c1)NCc1ccco1
-0.74 | c1ccc(-c2cnc(CSc3nnc4ccccn34)o2)cc1
0.51 | CCN(CC)C(=O)CN1C(=O)C(=O)c2ccccc21
0.78 | C=CCn1c(=NC(=O)CN2C(=O)CCC2=O)sc2cc(S(N)(=O)=O)ccc21
2.5 | CC1CN(C(=S)Nc2ccc(Br)cc2)CC(C)O1 (centres undefined)
-0.2 | COc1cc(/C=N\Nc2ccc([N+](=O)[O-])cn2)ccc1OCC(=O)O
-0.03 | CN(C)/C=C(/C(=O)c1ccccc1)n1cncn1
-2.2 | CCCNS(=O)(=O)c1ccc(CCC(=O)N2CCOCC2)cc1
1.9 | O=C(/C=C/c1cccc2ccccc12)c1ccncc1
0.55 | CC(C)CCN1CC(C(=O)NC(C)C)CC1=O (centres undefined)
0.23 | CCOC(=O)Cn1c(=O)c2c(nc(Br)n2Cc2ccc(Cl)cc2)n(C)c1=O
-0.06 | Cc1ccc(C(=O)Cn2c(NCCO)nc3ccccc32)cc1
1.5 | C/C(CC(=O)NCc1ccco1)=N\NC(=O)COc1ccc(C)cc1
0.38 | COc1ccc(N2CCCCn3c2nc2c3c(=O)[nH]c(=O)n2C)cc1
-0.11 | CCc1nnc(NC(=O)CSc2nnc(-c3ccco3)n2CC)s1
0.36 | COc1ccc(/C=N/Nc2nc(-c3cccnc3)nc3ccccc23)c(OC)c1
0.09 | Cc1cnc(C(=O)OCC(=O)Nc2cccc(Cl)c2)cn1
2.1 | COc1ccc(NC(=O)CSc2nnnn2-c2ccccc2F)cc1
-0.05 | O=C(COC(=O)CSc1ccc([N+](=O)[O-])cc1)NCC1CCCO1 (centres undefined)
-0.11 | O=C(CSc1ncnc2c1nnn2Cc1ccc(F)cc1)NCC1CCCO1 (centres undefined)
2.9 | COc1ccc(NCc2nnc(SCC(=O)Nc3nc(-c4ccccc4)cs3)n2-c2ccccc2)cc1
0.3 | COc1ccc(C(=O)NC(CC(C)C)C(=O)O)cc1OC (centres undefined)
0.16 | O=C(O)CN(c1ccc2c(c1)OCCO2)S(=O)(=O)c1ccccc1
-0.14 | COc1ccccc1Nc1nnc(C)c(=O)[nH]1
1.4 | COc1ccc([N+](=O)[O-])cc1NC(=O)COC(=O)c1ccccc1O
-1.1 | CCc1nn(-c2cc(Cl)ccc2OC)c2c1C(=O)CCC2
1.6 | C=CCn1c(O)c2ccc(C(=O)N=NC(=O)COc3ccccc3F)cc2c1O
-0.54 | COc1ccc(N(CC(=O)NC2CCCCCCC2)S(=O)(=O)c2c(C)nn(C)c2C)cc1
-0.22 | Cc1ccc(C2NC(=O)Cc3ccccc32)cc1 (centres undefined)
-0.33 | COc1ccc(NC(=O)CSc2nnc(Cc3cccn3C)n2-c2ccc(F)cc2)cc1
-0.76 | COc1ccc(CCNC(=O)Cn2nnc(-c3ccc(OC)c(OC)c3)n2)cc1OC

Carrying on:
Kir21 inh | mol
1.2 | CCCCC(=O)N1CCN(c2nc3ccc(Br)cc3s2)CC1
0.65 | COc1ccc(CNCc2cc(C)c(OC)cc2C)c(OC)c1
0.15 | CC(=O)N1c2ccc(S(=O)(=O)N(C)CC(=O)N3CCCC3)cc2CC1C (centres undefined)
0.46 | CCCc1cc2c(cc1NC(=O)c1ccc(Br)cc1)OCO2
-1.3 | Cc1ccnc(NC(c2ccccn2)c2c(C)[nH]c3ccccc23)c1 (centres undefined)
-2.1 | [O-][n+]1onc2c3ccnnc3ccc21
-0.06 | CCOC(=O)c1c(NC(=O)/C=C/c2ccc3c(c2)OCO3)sc(C)c1CC
0.04 | COc1ccc(N(CC(=O)N2CCN(c3ccccc3F)CC2)S(=O)(=O)c2c(C)n[nH]c2C)cc1
-0.21 | CC(=O)c1cc2c(cc1N(C(=O)c1ccco1)C(C(=O)NC1CCCC1)c1ccccc1F)OCO2 (centres undefined)
0.72 | O=C(CSCc1ccc(Br)cc1)NCc1ccccn1
-0.89 | COc1cccc(CN2CCC(n3nccc3NC(=O)C3CC3)CC2)c1
0.3 | Cc1cccc(NC(=O)C2CCN(S(=O)(=O)c3c(C)noc3/C=C/c3ccco3)CC2)n1
0.32 | Cc1cccc(C(=O)NNS(=O)(=O)c2ccccc2[N+](=O)[O-])c1
1.7 | CCOc1ccc(-c2nc(C#N)c(N3CCOCC3)o2)cc1
-0.48 | CC1=C(C(=O)Nc2nc3ccccc3s2)C(c2ccco2)C(C#N)=C(SCC(=O)NC2CCCCC2)N1 (centres undefined)
0.12 | CNS(=O)(=O)c1ccc2nc(NC(=O)/C=C/c3ccco3)sc2c1
1.2 | COc1cccc(-n2nc(-c3ccnn3-c3ccc(F)cc3)c(=O)n(C)c2=O)c1
-0.01 | CNc1c([N+](=O)[O-])ncn1C
-0.28 | S=C(NCCc1ccncc1)Nc1cccc2ccccc12
1.1 | COC(=O)c1cc(NC(=S)NCc2ccc(Cl)cc2)cc(C(=O)OC)c1
-1.7 | CC(=O)NC(O)C(=O)c1ccco1 (centres undefined)
0.02 | CCCC(=O)N(c1ccc(OC)cc1)C1C=CS(=O)(=O)C1 (centres undefined)
-0.11 | O=C1C2CCCN2C(c2cccc(F)c2)N1c1cccc(Cl)c1 (centres undefined)
-0.18 | Cc1nnc(N(C)C(=O)c2cccnc2)s1

Part of the list above, set out differently:
compound	Kir21 inh
O=C1C2CCCN2C(c2cccc(F)c2)N1c1cccc(Cl)c1 (centres undefined)	-0.11
COc1cccc(-n2nc(-c3ccnn3-c3ccc(F)cc3)c(=O)n(C)c2=O)c1	1.2

The main list resumes; the seven compounds before the break are reprinted first.
Kir21 inh | mol
-0.01 | CNc1c([N+](=O)[O-])ncn1C
-0.28 | S=C(NCCc1ccncc1)Nc1cccc2ccccc12
1.1 | COC(=O)c1cc(NC(=S)NCc2ccc(Cl)cc2)cc(C(=O)OC)c1
-1.7 | CC(=O)NC(O)C(=O)c1ccco1 (centres undefined)
0.02 | CCCC(=O)N(c1ccc(OC)cc1)C1C=CS(=O)(=O)C1 (centres undefined)
-0.11 | O=C1C2CCCN2C(c2cccc(F)c2)N1c1cccc(Cl)c1 (centres undefined)
-0.18 | Cc1nnc(N(C)C(=O)c2cccnc2)s1
-0.17 | Cc1ccc(C)c(NC(=O)N2CCc3ccccc3C2)c1
-2.5 | CC(C)(C)c1ccc(C(=O)c2c[nH]c(C(=O)NCCCn3ccnc3)c2)cc1
-0.42 | CSc1nn2c(C)c(C)c(C)nc2c1C#N
-0.39 | O=C(COc1ccccc1Br)c1ccc2c(c1)OCO2
-0.55 | CC(=O)c1sc(NC(=O)c2ccccc2C)nc1C
-3.9 | C/C(=N\NC(=O)C(C)Nc1cccc(Cl)c1)c1ccc([N+](=O)[O-])cc1 (centres undefined)
0.68 | COc1cccc(CNc2ncc(Br)cc2Br)c1O
-1.4 | COc1ccccc1C(=O)NCCC(=O)N1CCN(c2ccccc2Cl)CC1
-0.12 | CCOc1ccc(N2C(=O)Nc3ccccc3C2(O)C(=O)NCc2ccco2)cc1 (centres undefined)
-0.23 | Cc1cc(/C=C2/NC(=O)NC2=O)c(C)n1-c1ccc(N2CCOCC2)cc1
2.4 | CCOc1cc(S(=O)(=O)n2nc(C)cc2C)ccc1F
-0.3 | CCN(CC)CCC(c1ccc2c(c1)OCO2)c1c(O)cc(OC)cc1OC (centres undefined)
-2.2 | CCC(=O)Nc1ccc2c(c1)nc1n2CCSC1
-2 | Cc1ccc(CN(C)CC(=O)Nc2cccc([N+](=O)[O-])c2)o1
-1.9 | COc1ccc(Cn2c(-c3ccccc3C)nc3c(c(=O)c4ccccc4n3C)c2=O)cc1
1.3 | Cc1[nH]n(-c2ccc(Cl)c(Cl)c2)c(=O)c1CCO

Three entries out of the list, sorted by SMILES length, rising:
Kir21 inh | mol
-2.2 | CCC(=O)Nc1ccc2c(c1)nc1n2CCSC1
0.16 | O=C(O)CN(c1ccc2c(c1)OCCO2)S(=O)(=O)c1ccccc1
0.23 | CCOC(=O)Cn1c(=O)c2c(nc(Br)n2Cc2ccc(Cl)cc2)n(C)c1=O

(cont.)
Kir21 inh | mol
-0.48 | CC(C)Oc1ccc(CCC(=O)NNC(=O)c2ccccc2C(=O)O)cc1
0.44 | CC(=O)N1CC=CC1(CC(C)C)C(=O)NCCc1c[nH]c2ccccc12 (centres undefined)
-0.01 | O=C(N/N=C/c1ccco1)c1ccccn1
-2.7 | Cc1ccc(OCC(=O)Nc2cccc(S(=O)(=O)NC3=NCCCCC3)c2)cc1C
-0.1 | Cn1c(CBr)c(C(=O)c2ccc([N+](=O)[O-])cc2)c(=O)n(C)c1=O
-1.3 | CCOC(=O)c1cnc(SC)nc1Oc1cccc(NS(=O)(=O)c2ccc(F)cc2)c1
-2.1 | O=[N+]([O-])c1ccc2c(c1N1CCCCC1)=NC1(CCCCC1)[N+]=2[O-]
2.2 | CCOc1ccc(NS(=O)(=O)c2cc(C(=O)N3CCC3)ccc2Cl)cc1
0.68 | COc1ccc(OC)c(CN2C(=O)c3ccccc3C2C(=O)NCc2cccnc2)c1 (centres undefined)
0.11 | Cc1ccc(-n2nnc3c(=O)n(CC(=O)c4ccccc4)cnc32)cc1
0 | Cc1c(S(=O)(=O)c2ccccn2)c(N)n(Cc2ccccc2Cl)c1C

An excerpt from above in order of the Kir21 inh value, ascending.
Kir21 inh | mol
-0.33 | COc1ccc(NC(=O)CSc2nnc(Cc3cccn3C)n2-c2ccc(F)cc2)cc1
-0.25 | Cc1ccc(NS(=O)(=O)c2ccc(NC(=O)N3CCCCC3)cc2)cc1
0.02 | O=C(C[C@H]1C(=O)N(c2ccc(F)c(F)c2)C[C@@H]1Cc1ccccc1)Nc1ccccc1
